Bioassay records deposited in PubChem BioAssay by National Center for Advancing Translational Sciences (NCATS).
CtBP-E1A inh: qHTS Assay for Inhibitors of the CtBP/E1A Interaction; AlphaScreen GST-E1A/His-CtBP binding, 1536-well; stronger effect = lower value; control for the full effect not named in the record; CtBP / adenovirus E1A interaction (AlphaScreen); actives 0.49% (n = 340,000); activity change, % (no concentration beside the values); in the data active means activity change below about -65%; inconclusive means about -30% to -65%; inactive means above about -30%; further: on the % scale 0 is the no-effect control and ±100 the full control effect; compound concentration not given in the record
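Steps: dispense buffer (Tris pH 8.0, NaCl 300 mM, TCEP 1 mM, BSA, Tween 20); add 5X protein mix (GST-E1A, His-CtBP, 125 nM each); pin 23 nL compound; 2 h at 37 °C, dark; add 5X beads (50 ug/mL); 1 h; read.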
TRPV1 PAM: HTS Assay for Compounds that Act as Potentiators of the Vanilloid Receptor 1 | Transient receptor potential cation channel subfamily V member 1 (Homo sapiens), Q8NER1 | TRPV1-expressing cells, Fluo-8 calcium influx, capsaicin EC20 potentiation; host cell line not named in the record; control for the full effect not named in the record | potentiation, % at 8.33 µM | actives 0.02% (n = 320,000) | AID 540277, 2011; active means potentiation above 80%; inconclusive means 30% to 80%; inactive means below 30%; further: 0% is about no effect
Target sequence (Q8NER1 whole entry, looked up): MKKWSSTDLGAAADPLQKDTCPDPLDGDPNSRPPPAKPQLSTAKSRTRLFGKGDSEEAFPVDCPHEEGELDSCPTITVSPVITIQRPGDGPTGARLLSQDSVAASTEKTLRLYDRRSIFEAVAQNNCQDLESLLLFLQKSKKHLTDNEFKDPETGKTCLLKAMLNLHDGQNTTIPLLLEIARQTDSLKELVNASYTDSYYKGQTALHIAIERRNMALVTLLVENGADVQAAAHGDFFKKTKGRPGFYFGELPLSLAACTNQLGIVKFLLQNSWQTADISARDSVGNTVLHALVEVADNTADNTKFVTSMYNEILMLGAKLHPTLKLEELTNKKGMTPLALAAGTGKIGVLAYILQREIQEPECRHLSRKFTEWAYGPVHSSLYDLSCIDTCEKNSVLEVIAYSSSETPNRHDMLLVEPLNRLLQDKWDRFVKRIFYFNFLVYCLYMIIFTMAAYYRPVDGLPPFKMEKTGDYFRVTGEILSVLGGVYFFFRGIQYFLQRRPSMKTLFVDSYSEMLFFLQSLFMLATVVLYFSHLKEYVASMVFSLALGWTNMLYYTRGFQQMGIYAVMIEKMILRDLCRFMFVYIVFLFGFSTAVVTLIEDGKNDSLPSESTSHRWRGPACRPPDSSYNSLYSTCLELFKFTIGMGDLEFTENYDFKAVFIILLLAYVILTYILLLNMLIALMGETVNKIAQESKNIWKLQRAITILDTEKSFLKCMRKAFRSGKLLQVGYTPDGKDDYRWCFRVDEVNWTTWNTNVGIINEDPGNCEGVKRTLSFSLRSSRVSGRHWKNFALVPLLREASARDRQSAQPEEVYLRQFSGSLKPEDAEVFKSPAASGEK
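Cells expressing TRPV1 were dye-loaded with Fluo-8 and read kinetically: 10 s baseline, 3 min after compound (agonist portion), then 2 min after EC20 capsaicin (allosteric enhancer portion). Calcium-bound dye fluorescence at 480/520 nm.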
ClpP mod: qHTS Assay for Activators of ClpP; actives 1.9% (n = 340,000); Potency, µM (series often up to 57.5 µM), without a hit: at the top dose activity change, negative = active; purified B. subtilis ClpP, FRET peptide cleavage, 20 min; ATP-dependent Clp protease proteolytic subunit (Bacillus subtilis (strain 168)), P80244; AID 651965, 2013; active = well fitted falling curve with a large enough effect; inconclusive = small, poorly fitted or top-dose-only effect; inactive = no such curve, though single readings can be large or run the other way; further: potency means the concentration at half of the fitted maximal effect; the source files actives as falling curves though it sought activators and does not explain the sign; nearly all actives have a fitted effect of over 65% in size; many hits overshoot -100%
Target sequence (P80244 whole entry, looked up): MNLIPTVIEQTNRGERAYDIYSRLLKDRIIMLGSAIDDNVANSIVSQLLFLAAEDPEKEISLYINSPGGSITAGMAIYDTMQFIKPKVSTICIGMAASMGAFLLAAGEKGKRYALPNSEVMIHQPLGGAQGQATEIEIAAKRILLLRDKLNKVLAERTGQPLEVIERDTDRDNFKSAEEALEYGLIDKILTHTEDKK
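Purified B. subtilis ClpP, 10 microg/mL final in Tris/HCl pH8 with KCl, BSA, glycerol and Tween-20, cleaved an Abz/nitrotyrosine-quenched decapeptide. Fluorescence (ex 320, em 430) was read at 0 and 20 min at room temperature. Delta was normalized to 5.8 microM ADEP and DMSO/no-enzyme controls.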
Menin-MLL FL inh: qHTS Assay for Inhibitors Targeting the Menin-MLL Interaction in MLL Related Leukemias: Competition With Fluorescein Labeled MLL-derived Peptide; Fluorescence polarization, fluorescein-MLL peptide displacement from menin; FP activity change, % at 61.4 µM; 290,000 tested, under 10 active; AID 1766, 2009; inconclusive = falling polarisation curve, or a change in total fluorescence; inactive = total fluorescence flat and polarisation flat or rising; no compound was filed as active; the % refers to the polarisation; negative = inhibition;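 further: % of control where 0% means no effect; inhibitors lower the polarisation; unlabelled MLL peptide was the positive control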
Sfp PPTase inh: qHTS Assay for Inhibitors of Bacillus subtilis Sfp phosphopantetheinyl transferase (PPTase); 4'-phosphopantetheinyl transferase ffp (Bacillus subtilis), Q9F4F7; Biochemical Sfp PPTase activity, qHTS; Potency, µM, inactives show max response, negative = inhibition, usual class: inhibitors; actives 3.5% (n = 310,000); AID 1490, 2009; active means well fitted inhibition curve with a large enough effect; inconclusive means small, poorly fitted or top-dose-only effect, or another doubt; inactive means no such curve, though single readings can be large or run the other way;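 further: the enzyme is Sfp with the accession as filed and its product quenches rhodamine fluorescence; potency means the concentration at half of the fitted maximal effect; 0% = enzyme reaction without inhibitor and -100% = no enzyme wells; top concentration of the series not given in the record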
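Reaction rates are the 30-min fluorescence difference (ex 525, em 598 nm) in wells containing 15 nM Sfp, 5 uM rhodamine-CoA and 12.5 uM BHQ-2-YbbR at pH 7.6 with 10 mM MgCl2.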
gsp antagonist: qHTS for Antagonists of gsp, the Etiologic Mutation Responsible for Fibrous Dysplasia/McCune-Albright Syndrome: qHTS; Potency, µM (highest dose often 76.9 µM), for the others: at the highest dose activity change, negative = inhibition, usual class: inhibitors; actives 0.4% (n = 340,000); AID 624288, 2012; gsp-mutant cells, cAMP HTRF, 30 min; control for the full effect not named in the record; active = falling curve of any shape with a large fitted effect; inconclusive = falling curve, mostly with a smaller effect; inactive = flat or rising curve; cell line not stated here;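 further: intracellular cAMP measured with PDE inhibitor Ro 20-1724 present during compound exposure; potency means the concentration at half of the fitted maximal effect; on the % scale 0 is the no-effect control and ±100 the full control effect; nearly all actives have a fitted effect of over 65% in size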
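G418-selected cells were plated in DMEM/10% FBS for 16-24 h at 37C, then treated with compounds plus the PDE inhibitor […] (300 uM solution added) for 30 min at 37C. Intracellular cAMP was measured by HTRF after 30 min lysis at room temperature.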
gsp agonist: qHTS for Agonist of gsp, the Etiologic Mutation Responsible for Fibrous Dysplasia/McCune-Albright Syndrome: qHTS; AID 624287, 2012; Potency, µM (series often up to 76.9 µM), for inactives: top-dose activation (cAMP increase), hits mostly activators; actives 0.13% (n = 340,000); gsp mutant cells, cAMP HTRF, 30 min; control for the full effect not named in the record; active = well fitted activation curve with a large enough effect; inconclusive = small, poorly fitted or top-dose-only effect, or another doubt; inactive = no such curve, though single readings can be large or run the other way; cell line not stated here;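 further: phosphodiesterase inhibitor Ro 20-1724 added with compounds to block cAMP breakdown; potency means the concentration at half of the fitted maximal effect; nearly all actives have a fitted effect of over 60% in size; about a fifth of the inactives were tested at one dose only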
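Cells stably selected in G418 were plated at 2000/well, grown 16-24 hr, then given compounds in DMSO with the PDE inhibitor […] (300 uM solution added) for 30 min at 37C; cAMP was read by HTRF.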
* marks the source's active call; other numbers are inactive results; ? = inconclusive; · = no result given; & = joins results of further samples; [ ] = remark or other dose.

Start of the listing, in advance, 4 compounds:
SMILES | CtBP-E1A inh | TRPV1 PAM | ClpP mod | Menin-MLL FL inh | Sfp PPTase inh | gsp antagonist | gsp agonist
COc1ccc(NC(=O)C(CC(C)C)NC(=O)C2CCC(C)CC2)c(OC)c1 (configuration not stated) | 0 | -15 | -2.9% | 0.2 | 6% | 1% | ?
CCN(CC)S(=O)(=O)c1ccc(N2CCOCC2)c(NC(=O)c2cccc3ccccc23)c1 | -18 | 5 | -2.6% | 2.6 | 27% | -14% | 1%[15.4 µM]
O=C(Nc1ccc(N2CCOCC2)cc1N1CCOCC1)c1cccc([N+](=O)[O-])c1 | 2 | -16 | 0.1% | -2.2 | 5% | 6% | ?
COc1cc(NC(=O)COc2cccc(OC)c2)cc(OC)c1 | 9 | -32 | 1.5% | 2.7 | -2% | -8% | -4%

The listing (from the top)
SMILES | CtBP-E1A inh | TRPV1 PAM | ClpP mod | Menin-MLL FL inh | Sfp PPTase inh | gsp antagonist | gsp agonist
COc1ccc(NC(=O)C(CC(C)C)NC(=O)C2CCC(C)CC2)c(OC)c1 (configuration not stated) | 0 | -15 | -2.9% | 0.2 | 6% | 1% | ?
CCN(CC)S(=O)(=O)c1ccc(N2CCOCC2)c(NC(=O)c2cccc3ccccc23)c1 | -18 | 5 | -2.6% | 2.6 | 27% | -14% | 1%[15.4 µM]
O=C(Nc1ccc(N2CCOCC2)cc1N1CCOCC1)c1cccc([N+](=O)[O-])c1 | 2 | -16 | 0.1% | -2.2 | 5% | 6% | ?
COc1cc(NC(=O)COc2cccc(OC)c2)cc(OC)c1 | 9 | -32 | 1.5% | 2.7 | -2% | -8% | -4%
Cc1[nH]n(-c2ccc([N+](=O)[O-])cc2)c(=O)c1C=NCCN1CCN(C(=O)c2ccccc2F)CC1 | 6 | -3 | 1.4% | 1.2 | 7% | -7% | ?
CN1CCN(c2nc3ccccn3c(=O)c2C=C(C#N)C#N)CC1 | -13 | -9 | -2.1% | 1.5 | 10% | -5% | 22%[15.4 µM]
CN(C(=O)/C=C/c1ccccc1)C1CCS(=O)(=O)C1 (configuration not stated) | -7 | 12 | -24% | 8.4 | 16% | 4% | -21%
Cc1occc1C(=O)NCc1ccccn1 | -7 | -15 | -6.7% | -7.2 | -22% | 5% | -29%
O=C(NCc1ccccn1)c1c(-c2ccccc2)sc2ccccc12 | -29 | · | -4.9% | · | · | -7% | ?
CCOC(=O)c1cc(C)sc1/N=C/C1C(=O)CC(C)(C)CC1=O | 21 | -5 | 1.1% | · | 0% | -10% | -7%[15.4 µM]
O=C(c1ccccc1F)N(Cc1cccs1)C1CCS(=O)(=O)C1 (configuration not stated) | 16 | 3 | 1.6% | 0.1 | 11% | 6% | 11%[15.4 µM]
Cc1ccc(N(CC(=O)NC(C)(C)C)C(=O)CNC(=O)c2cccs2)cc1C | -5 | -4 | · | -0.8 | 17% | 2% | 7%[15.4 µM]
COc1ccccc1C1C(C#N)=C(N)N(N(C)C)C2=C1C(=O)CC(C)(C)C2 (configuration not stated) | -24 | -7 | 0.3% | 2.5 | 1% | -8% | 7%
CCOC(=O)c1sc(NC(=O)C(CC)OC(=O)c2ccco2)nc1C (configuration not stated) | -10 | 25 | 1.0% | 3.2 | 5% | -8% | 0%[15.4 µM]
O=C(CNc1ccccc1)Nc1ccc(F)cc1 | -10 | 0 | 0.2% | 8.4 | 1% | 8% | -28%
CN(C)/N=C/c1ccc(/C=N/NC(N)=S)o1 | 2 | 3 | · | -2.2 | 45µM* | ? | ?
O=C(N/C(=C/c1ccc(Cl)cc1)C(=O)N1CCOCC1)c1ccccc1 | -4 | -1 | -1.8% | · | 18% | 3% | -2%
Cc1[nH]n(C(N)=S)c(=O)c1N=Nc1ccc(S(=O)(=O)N2CCCC2)cc1 | -10 | -4 | 0.1% | 1.6 | ? | -13% | 12%
N#CCC(=O)Nc1ccc(C(=O)OCC(=O)NC2CCCCCC2)cc1 | 3 | 12 | -1.7% | · | · | 5% | -15%
O=C(c1cccs1)N1CCCC(c2nc3c(nnn3Cc3cccc(Cl)c3)c(=O)[nH]2)C1 (configuration not stated) | -1 | -3 | · | 3.1 | 2% | -10% | 5%
CN(C)S(=O)(=O)c1cccc(NC(=O)Cn2cc(C(F)(F)F)cc(Cl)c2=O)c1 | 5 | 7 | -0.9% | 3.8 | -3% | 7% | -1%
CCOc1nc(Nc2ccccc2F)nc(OCC)n1 | · | -5 | -0.2% | -2.8 | 4% | 3% | 23%
COc1ccc(Cc2nnc(SC(C)C(=O)Nc3ccc(C(N)=O)cc3)o2)cc1 (configuration not stated) | 9 | 2 | 4.1% | · | · | 9% | -9%
COC(=O)[C@@]12CCCCN1[C@H](c1ccc(-c3ccc(F)cc3)c(OC)c1)[C@H]1C(=O)N(C)C(=O)[C@H]12 | -10 | · | -11% | · | · | -15% | -14%
COc1ccccc1NC(=O)Cc1coc2cc(C)ccc12 | 4 | -22 | -0.2% | -0.3 | ? | 2% | 11%
Cc1ccc(NC(=O)Cc2ccsc2)cc1Cl | · | -21 | -1.1% | 1.6 | 1% | 1% | -4%
O=C(Nc1cccc(C(F)(F)F)c1)C12CC3CC(CC(C3)C1)C2 | -1 | -14 | 0.5% | -1.0 | 16% | 1% | 17%
COc1ccc(C(=O)CCNc2ccc(C)c(Cl)c2)cc1 | -5 | 12 | -2.1% | 5.2 | 12% | 12% | -15%
CCOC(=O)C1=CN(Cc2ccc(Br)cc2)S(=O)(=O)NC1C (configuration not stated) | 3 | · | -0.5% | · | · | -7% | ·
O=C(COC(=O)C1CC1)Nc1ccc(Oc2ccccc2)cc1 | -2 | -13 | -2.6% | 2.0 | -5% | 3% | -4%
Cc1c(C(=O)c2ccc(Br)cc2)c(=O)n(C)c(=O)n1C | 1 | 8 | 0.3% | -3.2 | 16% | 7% | -14%
CN(C)/C=N/C(=S)Nc1ccc(Cl)cc1 | -24 | 8 | · | 0.2 | -12% | -9% | -24%[15.4 µM]
CCS(=O)(=O)c1nc(S(=O)(=O)c2ccc(Cl)cc2)c(N2CCN(C)CC2)s1 | -1 | 19 | -3.3% | · | 7% | 10% | ?
Nn1c(SCC(=O)Nc2ccccc2F)nnc1-c1cccnc1 | -4 | 2 | 1.0% | 7.7 | 1% | 7% | -42%[inhibitor]
O=C(c1ccc(S(=O)(=O)N2CCCCC2)cc1)N1CCc2ccccc2C1 | -1 | -19 | 1.3% | 3.0 | -4% | -27% | -14%[15.4 µM]
CCOC(O)[C@H]1N[C@@H](c2ccc(Cl)cc2)[C@@H]([N+](=O)[O-])[C@@H]1c1ccccc1 (some centres not stated) | 8 | -4 | -1.4% | 1.1 | 8% | 2% | -13%
O=C(COc1cccnc1[N+](=O)[O-])Nc1ccc(N2CCOCC2)cc1 | -1 | -13 | · | -0.9 | 5% | 0% | 1%[15.4 µM]
Cc1ccc(CNC(=O)C2(C(F)(F)F)C/C(=C\Cc3ccccc3)CCCO2)o1 (configuration not stated) | -2 | -11 | 0.9% | 6.2&4.0 | 50µM* | 0% | 3%
COc1ccc(CC(=O)Nc2ccc(N3CCCC3)c(C)c2)cc1 | -13 | -5 | · | 9.4 | -15% | -4% | -19%
CCOC(=O)C1CCN(C(=O)CN(c2cccc(C(F)(F)F)c2)S(C)(=O)=O)CC1 | 0 | 10 | -2.5% | 3.5 | 6% | 4% | 0%
CC(CN1C(C)CCCC1C)OC(=O)c1ccccc1F (configuration not stated) | -5 | 9 | -4.4% | -1.4 | 22% | 18% | 20%
CCOC(=O)C1=C(C)N=C2c3ccccc3C(=O)C2C1c1ccc(C)cc1 (configuration not stated) | -13 | ? | -2.4% | -2.2 | -28% | -11% | -30%[inhibitor]
O=C(Nc1ccccc1OC(F)F)c1ccc(F)cc1 | 9 | -9 | 0.1% | 0.2 | 7% | 13% | -37%[inhibitor]
CC(=O)NNc1ncnc2ccccc12 | · | 0 | 1.1% | 5.4 | -13% | 4% | ?
CCN(CC)Cc1c(C(=O)N/N=C/c2ccco2)nnn1-c1nonc1N | -13 | 4 | -3.5% | · | 3% | -1% | 18%
O=C(OCc1nc2ccc(Cl)cc2n1CCO)c1ccccc1C(=O)c1ccccc1 | 6 | -10 | -1.1% | 1.8 | 14% | -24% | 26%[15.4 µM]
Cn1cccc1Cc1nnc(SCC(=O)Nc2ccccc2F)n1-c1ccc(F)cc1 | -4 | 5 | 11% | 4.9 | 0% | -7% | 11%
COC(=O)c1ccc(C(=O)OC)c(NC(=O)COC(=O)CCOc2ccc(C)cc2)c1 | -6 | -1 | ? | · | · | -1% | -12%[15.4 µM]
CC1(C)OC(=O)C(=Cc2ccc(-c3ccc(Cl)c(C(=O)O)c3)o2)C(=O)O1 | 7 | 4 | · | 9.2 | 79µM* | -11% | 1%[15.4 µM]
COc1ccc2c(c1)O[C@@]1(CCCC[C@@H]1C)CC2=O | 8 | -11 | 3.8% | · | · | -5% | 5%
COc1ccc(CC(=O)N2CCC3(CC2)NCCc2[nH]cnc23)cc1 | 0 | 4 | -0.6% | · | 3% | 12% | ?
COc1ccc(CN2CCN(C(=O)c3ccccc3C(=O)c3ccccc3)CC2)cc1OC | 10 | · | 1.9% | · | · | 11% | -1%

Outcome played no part in choosing rows; about 5.3% have a hit in one of these screens.
